Assay outcomes deposited in PubChem BioAssay by National Center for Advancing Translational Sciences (NCATS).
NPSR antagonist: blocks cAMP signaling of the human neuropeptide S receptor; 220,000 compounds, 1% hits; CHO-NPSR cells, cAMP TR-FRET, antagonist mode; Q6W5P4; Potency, µM (titrated, usually from 38.3 µM), inactives show top-dose activity change, negative = inhibition, most hits filed as inhibitors; also: potency is read from the fitted curve at half-maximal effect; % is scaled to controls: 0 for no effect and ±100 for the full control effect; nearly all actives have a fitted effect of over 50% in size; many of its hits are not listed in these tables
Target sequence (Q6W5P4 whole entry, looked up): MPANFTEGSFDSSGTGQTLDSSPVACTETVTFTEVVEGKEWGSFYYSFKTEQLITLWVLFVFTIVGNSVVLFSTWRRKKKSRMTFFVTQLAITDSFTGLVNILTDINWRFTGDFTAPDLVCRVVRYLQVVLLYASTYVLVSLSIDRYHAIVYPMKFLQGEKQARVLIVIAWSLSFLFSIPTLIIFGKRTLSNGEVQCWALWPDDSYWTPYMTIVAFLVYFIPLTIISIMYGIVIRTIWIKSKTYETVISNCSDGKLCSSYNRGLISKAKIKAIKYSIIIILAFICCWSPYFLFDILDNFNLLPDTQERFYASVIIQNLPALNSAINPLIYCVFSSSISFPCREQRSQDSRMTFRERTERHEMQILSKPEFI
Epigenetic derep: derepresses silenced GFP reporter in murine cells; murine LDR cells, GFP reporter derepression, 30 h; AID 1865; 280,000 compounds, 0.2% hits; Potency, µM (series often up to 53.9 µM), for inactives: at the highest dose GFP activation, actives largely listed as activators; also: potency is read from the fitted curve at half-maximal effect; % of control where 0% means no effect; nearly all actives have a fitted effect of over 60% in size
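GFP-positive cell count by laser-scanning cytometry (objects 20–120 um) after 30 h, 37 C compound exposure of murine LDR cells; reporter is CMV-GFP integrated at a silenced locus, inducible by HDAC or DNMT inhibitors.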
HttQ103 aggreg: reduces HttQ103-GFP aggregates in PC12 cells. Potency, µM (highest dose often 46.1 µM), for inactives: at the highest dose activity change, negative = inhibition, usual class: inhibitors. AID 1688. PC12 HttQ103-GFP aggregates, Acumen cytometry, 40 h. 220,000 compounds, 1.1% hits; also: potency is read from the fitted curve at half-maximal effect; % is scaled to controls: 0 for no effect and ±100 for the full control effect; nearly all actives have a fitted effect of over 60% in size
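PC12 cells with ecdysone-inducible HTT exon1 Q103-GFP, induced by 100 nM tebufenozide, given compounds in a concentration series. GFP aggregates (1–25 um, 6 SD above background) counted in lysates by laser-scanning cytometry, 488 nm excitation.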
CBFb-RUNX1 inh: CBF-beta/RUNX1 interaction disruption. AID 1477. AlphaScreen CBFb-His/RUNX1-biotin binding, biochemical. 230,000 tested, under 10 active. Potency, µM (titrated, usually from 59.8 µM), for the others: top-dose activity, negative = inhibition, hits mostly inhibitors; also: % of control where 0% means no effect
Target sequence (Q01196 whole entry, looked up): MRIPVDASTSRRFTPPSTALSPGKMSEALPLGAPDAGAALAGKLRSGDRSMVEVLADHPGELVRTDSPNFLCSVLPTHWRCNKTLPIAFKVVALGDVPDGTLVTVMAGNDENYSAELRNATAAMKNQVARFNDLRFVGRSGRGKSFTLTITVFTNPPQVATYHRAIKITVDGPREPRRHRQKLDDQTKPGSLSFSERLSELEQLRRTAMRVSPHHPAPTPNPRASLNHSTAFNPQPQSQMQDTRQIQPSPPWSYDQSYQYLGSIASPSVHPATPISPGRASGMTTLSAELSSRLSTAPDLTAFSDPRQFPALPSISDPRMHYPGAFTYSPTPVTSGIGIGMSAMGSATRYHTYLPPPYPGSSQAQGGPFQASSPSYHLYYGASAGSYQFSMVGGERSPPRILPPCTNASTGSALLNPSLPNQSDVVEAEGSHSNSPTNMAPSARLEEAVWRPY
Target sequence (Q13951 whole entry, looked up): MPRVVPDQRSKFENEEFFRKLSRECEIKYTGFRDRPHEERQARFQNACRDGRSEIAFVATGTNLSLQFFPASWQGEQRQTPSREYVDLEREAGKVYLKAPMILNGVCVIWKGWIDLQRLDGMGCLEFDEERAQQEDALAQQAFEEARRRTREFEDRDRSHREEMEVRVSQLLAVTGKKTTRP
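Interaction loss through any mechanism counts as activity. Pre-formed complex of His-CBF-beta and biotin-RUNX1 (30 nM apiece) is incubated with compound 15 min, then with 50 ng nickel and 50 ng streptavidin beads for 90 min before AlphaScreen detection.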
KinaseGlo FLuc: counter-screen: inhibitors of Kinase-Glo firefly luciferase; Q27757; AID 1379; Potency, µM (series often up to 38.3 µM), for the others: at the highest dose activity change, negative = inhibition, most hits filed as inhibitors; Kinase-Glo luciferase, ATP luminescence, 8 min; 200,000 compounds, 0.28% hits; also: potency is read from the fitted curve at half-maximal effect; % is scaled to controls: 0 for no effect and ±100 for the full control effect; nearly all actives have a fitted effect of over 60% in size
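Luminescence was the read-out, taken after 8-minute incubation at ambient temperature. Luciferase turned over luciferin with 10 uM ATP in imidazole pH 7.2 buffer containing KCl, MgCl2, Tween 20 and BSA.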
LMNA splice mod: changes lamin A minigene splicing in HeLa cells. Potency, µM (doses to about 46.1 µM), inactives show at the top dose ratio change, negative = inhibition, actives largely listed as inhibitors. HeLa LMNA splicing GFP/RFP minigene ratio, 48 h. 200,000 compounds, 0.01% hits; active = well fitted inhibition curve with a large enough effect in the signal ratio, with a control signal flat, not every such curve was filed as active; inconclusive = small, poorly fitted or top-dose-only effect, or effect the other way, or a change in a side signal; the % refers to the signal ratio; also: potency is read from the fitted curve at half-maximal effect; % is scaled to controls: 0 for no effect and ±100 for the full control effect
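S3 HeLa cells stably expressing lamin A-EGFP splicing minigene plus DsRed2, 600 cells/well, 48 h compound exposure at 37C. Laser-scanning cytometry; analysed as GFP (500-530 nm)/RFP (575-640 nm) total intensity ratio; 0.5% DMSO vehicle.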
* = called active by the depositor; ? = inconclusive; nt = not tested or not shown; & = joins results of further samples; [ ] = dose if it differs, or a comment. Unless noted, calls follow the shape of the dose curve; as a rule, active = well fitted curve in the direction sought with a large enough effect; inconclusive = small, poorly fitted or top-dose-only effect, or another doubt; inactive = no such curve, though single readings can be large; an effect the other way counts as inactive or inconclusive.

# | molecule | NPSR antagonist | Epigenetic derep | HttQ103 aggreg | CBFb-RUNX1 inh | KinaseGlo FLuc | LMNA splice mod
1 | O=C(Nc1nc2cc3c(cc2s1)OCCO3)c1ccncc1 | -9.5% | -1.3% | -6.2% | ? | -13.1% | ?
2 | COc1ccc(C(=O)Sc2nncc3ccccc23)cc1 | -2.8% | -2.9% | 21.7% | -0.1% | 3.5% | ?
3 | COc1ccc(OC(=O)CCc2c[nH]c3ccccc23)cc1 | 6.7% | -1.3% | -18.8% | 10.6% | -2.3% | nt
4 | CCc1ccc(-n2cccc2/C=C2/C(=N)N3C(=NC2=O)SN=C3S(C)(=O)=O)cc1 | -18.7% | -1.7% | 2.0% | -8.4% | 4.6% | 20.2%[9.22 µM]
5 | Cc1ccc(-c2noc(-c3ccoc3C)n2)cc1 | -9.8% | -1.0% | 1.4%[9.22 µM] | 0.0% | -19.2% | nt
6 | CCOC(=O)CN1C(=O)N[C@@H](c2cccc(C(F)(F)F)c2)C(C(=O)OC)=C1C | nt | nt | nt | 0.5%[13.1 µM] | -6.1%[7.66 µM] | 1.2%[9.22 µM]
7 | O=C(O)CSCC(=O)NCc1ccc(Cl)cc1Cl | 9.1% | -3.5% | -0.5%[9.22 µM] | -4.4% | -0.8% | nt
8 | CN(NS(=O)(=O)c1ccc(Cl)cc1)c1ncc(C(F)(F)F)cc1Cl | -20.1% | -1.3% | -22.7% | 25.7% | -0.5% | -4.3%[46 µM]
9 | CCCC(C)NC(=O)c1cccc(Oc2ccccc2)c1 (stereo not drawn) | -43.7% | 0.0% | 2.3% | ? | -3.1% | ?
10 | Clc1ccc(-c2nnc(COc3ncnc4ccccc34)o2)cc1 | -2.7% | -0.3% | ? | -7.3% | 0.9% | 16.6%[46 µM]
11 | C=CCn1c(C(CC)CC(C)(C)O)n[nH]c1=S (stereo not drawn) | 13.5% | -0.1% | nt | 0.1% | -0.2% | ?
12 | O=[n+]1cc(-c2ccccc2)n([O-])c2c1CCCCC2 | 13.3% | -1.9% | -6.4% | -17.5% | -4.6% | -7.8%
13 | CCOC(=O)Nc1ccc(Cc2ccncc2)cc1 | -8.3% | 0.1% | -3.8%[9.22 µM] | 10.0% | -1.7% | -8.0%[46 µM]
14 | O=C(CN1C(=O)C2C3C=CC(C3)C2C1=O)Nc1nncs1 (stereo not drawn) | 12.3% | 3.0% | 10.3% | -3.2% | -2.2% | -8.9%[46 µM]
15 | CN1C(=O)C(N=Nc2ccccc2C(=O)O)N(C)C1=S (stereo not drawn) | -27.5% | 0.0% | nt | -2.6% | -9.5% | ?
16 | CCC(=O)NC(=S)Nc1ccc(NC(=O)c2ccco2)c(Cl)c1 | -27.6% | -7.1% | -5.5% | -6.4% | -2.7% | nt
17 | COC(=O)c1ccc(C23CC4(C2)[C@H](CN(Cc2cccnc2)[C@@H]4c2ccccc2)C3c2ccc(Cl)nc2)cc1 (stereo partly drawn) | -40.9% | 0.4%&-1.1% | 13.8%[9.22 µM] | -4.7%&-15.2% | -2.4% | nt
18 | CC(C)C(=O)NC(Nc1cc(C(F)(F)F)ccc1Cl)C(Cl)(Cl)Cl (stereo not drawn) | -28.9% | 0.0% | -28.7% | 4.1% | -2.7% | ?
19 | C=CCS(=O)(=O)N1CCC(CCOc2ccccc2)(C(=O)OCC)CC1 | 10.0% | -4.9% | -28.6%[9.22 µM] | 11.7% | -7.4% | 11.6%[46 µM]
20 | O=C(N/N=C/c1ccc2c(c1)OCO2)c1ccc(Br)o1 | -11.7%[46.1 µM] | 0.0% | 8.3% | -1.3% | ? | 10.3%
21 | O=C(Cn1c2ccccc2c(=O)c2cc([N+](=O)[O-])ccc21)Nc1ccccc1Cl | -11.0% | 6.9% | -1.6% | -11.3% | 0.1% | -2.3%
22 | C/C(=N/OCO/N=C(/C)c1ccc(F)cc1)c1ccc(F)cc1 | -4.2% | -1.0% | -3.5% | -2.2% | 2.6% | ?
23 | CC(C)CC(=O)NCc1ccc2[nH]c3c(c2c1)CCCC3 | -0.4% | 2.7% | 5.9% | -15.1% | 1.2% | ?
24 | CCOc1ccccc1NC(=S)N(Cc1cc2ccc(C)cc2[nH]c1=O)CC1CCCN1CC (stereo not drawn) | 15.8% | 2.1% | -0.8% | -5.6% | -2.1% | ?
25 | Cc1cc(/C=N\NC(=O)COc2cccc3cccnc23)c(C)n1-c1ccccc1 | 7.0% | 0.0% | ? | -5.0% | -2.3% | -0.2%
26 | CN(C(=O)COC(=O)c1cccnc1Nc1cccc(C(F)(F)F)c1)C1CCS(=O)(=O)C1 (stereo not drawn) | 22.2% | 0.0% | -0.2% | 2.6% | -1.2% | -9.5%
27 | O=C(CSCc1ccc([N+](=O)[O-])cc1)NN=C1CCCCCC1 | -0.3% | -1.0% | -14.3% | -5.4% | 2.1% | -10.4%
28 | O=C(O/N=C\c1ccc(N2CCCCC2)c([N+](=O)[O-])c1)c1cccc(Cl)c1 | -4.7%[46.1 µM] | 1.2% | 2.5% | -2.7% | 3.1% | 4.3%
29 | COCCNC(=O)C(c1ccncc1)N(Cc1ccccc1)C(=O)Cn1nnc2ccccc21 (stereo not drawn) | 9.3% | 1.2% | 4.2% | -3.6% | -2.7% | 6.9%[46 µM]
30 | CC(=O)CCc1oc2ccc([N+](=O)[O-])cc2c1-c1ccc(C)o1 | 33.3% | 4.4% | -11.1%[9.22 µM] | -9.6% | 0.4% | ?

Part of the list above in a different format:
17. COC(=O)c1ccc(C23CC4(C2)[C@H](CN(Cc2cccnc2)[C@@H]4c2ccccc2)C3c2ccc(Cl)nc2)cc1 (stereo partly drawn)
18. CC(C)C(=O)NC(Nc1cc(C(F)(F)F)ccc1Cl)C(Cl)(Cl)Cl (stereo not drawn)
19. C=CCS(=O)(=O)N1CCC(CCOc2ccccc2)(C(=O)OCC)CC1
20. O=C(N/N=C/c1ccc2c(c1)OCO2)c1ccc(Br)o1
21. O=C(Cn1c2ccccc2c(=O)c2cc([N+](=O)[O-])ccc21)Nc1ccccc1Cl
22. C/C(=N/OCO/N=C(/C)c1ccc(F)cc1)c1ccc(F)cc1
23. CC(C)CC(=O)NCc1ccc2[nH]c3c(c2c1)CCCC3
24. CCOc1ccccc1NC(=S)N(Cc1cc2ccc(C)cc2[nH]c1=O)CC1CCCN1CC (stereo not drawn)
25. Cc1cc(/C=N\NC(=O)COc2cccc3cccnc23)c(C)n1-c1ccccc1
26. CN(C(=O)COC(=O)c1cccnc1Nc1cccc(C(F)(F)F)c1)C1CCS(=O)(=O)C1 (stereo not drawn)

entry no. | 17 | 18 | 19 | 20 | 21 | 22 | 23 | 24 | 25 | 26
NPSR antagonist | -40.9% | -28.9% | 10.0% | -11.7%[46.1 µM] | -11.0% | -4.2% | -0.4% | 15.8% | 7.0% | 22.2%
Epigenetic derep | 0.4%&-1.1% | 0.0% | -4.9% | 0.0% | 6.9% | -1.0% | 2.7% | 2.1% | 0.0% | 0.0%
HttQ103 aggreg | 13.8%[9.22 µM] | -28.7% | -28.6%[9.22 µM] | 8.3% | -1.6% | -3.5% | 5.9% | -0.8% | ? | -0.2%
CBFb-RUNX1 inh | -4.7%&-15.2% | 4.1% | 11.7% | -1.3% | -11.3% | -2.2% | -15.1% | -5.6% | -5.0% | 2.6%
KinaseGlo FLuc | -2.4% | -2.7% | -7.4% | ? | 0.1% | 2.6% | 1.2% | -2.1% | -2.3% | -1.2%
LMNA splice mod | nt | ? | 11.6%[46 µM] | 10.3% | -2.3% | ? | ? | ? | -0.2% | -9.5%

27. O=C(CSCc1ccc([N+](=O)[O-])cc1)NN=C1CCCCCC1
28. O=C(O/N=C\c1ccc(N2CCCCC2)c([N+](=O)[O-])c1)c1cccc(Cl)c1
29. COCCNC(=O)C(c1ccncc1)N(Cc1ccccc1)C(=O)Cn1nnc2ccccc21 (stereo not drawn)
30. CC(=O)CCc1oc2ccc([N+](=O)[O-])cc2c1-c1ccc(C)o1

entry no. | 27 | 28 | 29 | 30
NPSR antagonist | -0.3% | -4.7%[46.1 µM] | 9.3% | 33.3%
Epigenetic derep | -1.0% | 1.2% | 1.2% | 4.4%
HttQ103 aggreg | -14.3% | 2.5% | 4.2% | -11.1%[9.22 µM]
CBFb-RUNX1 inh | -5.4% | -2.7% | -3.6% | -9.6%
KinaseGlo FLuc | 2.1% | 3.1% | -2.7% | 0.4%
LMNA splice mod | -10.4% | 4.3% | 6.9%[46 µM] | ?

The list goes on.
# | molecule | NPSR antagonist | Epigenetic derep | HttQ103 aggreg | CBFb-RUNX1 inh | KinaseGlo FLuc | LMNA splice mod
31 | CN(C)c1ccc(O)c2c1CC1CC3[C@@H](N(C)C)C(=O)C(C(N)=O)=C(O)[C@]3(O)C(=O)C1=C2O (stereo partly drawn) | -4.1% | -1.8% | -16.5% | nt | -3.6% | ?
32 | CC(=O)Nc1ccc(CN2CCCC(CO)(Cc3ccccc3C)C2)cc1 (stereo not drawn) | -8.1% | -0.2% | 3.9%[9.22 µM] | 2.0% | nt | nt
33 | CCCCOC(=O)C1=C(C)Nc2nnnn2C1c1ccc(OC)c(OC)c1OC (stereo not drawn) | -26.2%[46.1 µM] | 1.9% | -15.6% | 1.2% | -1.0% | -3.4%
34 | CCN(CC)CC(=O)Nc1c(C)cccc1C | 24.0% | 1.1% | -4.3%&18.7%&-23.3% | 5.3% | -4.1% | ?
35 | O=C(O)C1=CC(O)[C@@H](O)C(O)C1 (stereo partly drawn) | nt | -1.3% | nt | nt | -1.1% | -6.3%
36 | CCC1(c2ccc(F)cc2)NC(=O)N(CC(=O)Nc2cc(S(=O)(=O)N(C)C)ccc2Cl)C1=O (stereo not drawn) | -8.7% | -0.5% | -6.9% | -6.3% | 0.5% | -12.4%[46 µM]

Not all compounds are listed, so the mix of outcomes need not match the whole.
